Assay outcomes as filed in PubChem.
NOMO-1 viab: STK33 inhibitor candidate reducing NOMO-1 cell viability; NOMO-1 AML viability, CellTiter-Glo luminescence, 72 h; inhibition, % (concentration not given with the values); actives 7.5% (n = 37,000); AID 2330;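 active = most replicates above 80%; inconclusive = exactly half above 80%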;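 also: wells of about 30 µL received 25 nL stock; 0% = median of vehicle wells and 100% = reference inhibitor level; the first replicate is given; inactives centre near 10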
An asterisk follows results filed as active; ? = inconclusive.

SMILES	NOMO-1 viab
C[C@H]1CN([C@@H](C)CO)C(=O)c2cc(NC(=O)Cc3ccccc3)ccc2O[C@@H]1CN(C)C(=O)Nc1ccccc1	1
CCn1c(SCC(=O)Nc2cccc(SC)c2)nnc1-c1ccc(Br)cc1	-28
C[C@@H]1CN([C@@H](C)CO)C(=O)c2cccc(NS(=O)(=O)c3ccc(F)cc3)c2O[C@H]1CN(C)C(=O)Nc1ccc2c(c1)OCO2	4
COc1ccc(S(=O)(=O)Nc2cccc3c2O[C@H](CN(C)Cc2ccncc2)[C@H](C)CN([C@@H](C)CO)C3=O)cc1	9
Cc1ccc(S(=O)(=O)N(C)C[C@H]2Oc3c(NC(=O)Nc4c(C)noc4C)cccc3C(=O)N([C@@H](C)CO)C[C@@H]2C)cc1	-14
Cc1noc(C)c1S(=O)(=O)Nc1ccc2c(c1)C(=O)N([C@@H](C)CO)C[C@H](C)[C@H](CN(C)S(=O)(=O)c1ccc(Cl)cc1)O2	16
Cc1noc(C)c1S(=O)(=O)Nc1ccc2c(c1)CC(=O)N([C@@H](C)CO)C[C@H](C)[C@@H](CN(C)Cc1ccc(-c3ccccc3)cc1)O2	86*
Cc1noc(C)c1NC(=O)Nc1cccc2c1O[C@H](CN(C)Cc1ccc(C(F)(F)F)cc1)[C@@H](C)CN([C@@H](C)CO)C2=O	24
C[C@H]1CN([C@@H](C)CO)C(=O)c2cccc(NS(C)(=O)=O)c2O[C@H]1CN(C)S(=O)(=O)c1ccccc1	-16
C[C@H]1CN([C@@H](C)CO)C(=O)c2cccc(NC(=O)C3CCCCC3)c2O[C@@H]1CN(C)C(=O)NC1CCCCC1	12
CCOC(=O)c1c(NC(=O)CSc2nc3ccccc3[nH]2)sc2c1CCCC2	39
Cc1noc(C)c1NC(=O)Nc1cccc2c1O[C@@H](CN(C)Cc1ccc(Oc3ccccc3)cc1)[C@H](C)CN([C@@H](C)CO)C2=O	67
C[C@@H]1CN([C@@H](C)CO)C(=O)c2cccc(NS(=O)(=O)c3cccs3)c2O[C@@H]1CN(C)C(=O)NC1CCCCC1	43
COc1ccc(NC(=O)Nc2ccc3c(c2)C(=O)N([C@H](C)CO)C[C@H](C)[C@@H](CN(C)Cc2ccc(Oc4ccccc4)cc2)O3)cc1	3
C[C@@H]1CN([C@H](C)CO)C(=O)Cc2cc(NS(C)(=O)=O)ccc2O[C@H]1CN(C)C	6

3 compounds from above, sorted by SMILES length, low to high.
SMILES	NOMO-1 viab
CCn1c(SCC(=O)Nc2cccc(SC)c2)nnc1-c1ccc(Br)cc1	-28
C[C@H]1CN([C@@H](C)CO)C(=O)c2cccc(NC(=O)C3CCCCC3)c2O[C@@H]1CN(C)C(=O)NC1CCCCC1	12
Cc1noc(C)c1NC(=O)Nc1cccc2c1O[C@@H](CN(C)Cc1ccc(Oc3ccccc3)cc1)[C@H](C)CN([C@@H](C)CO)C2=O	67

Following part
SMILES	NOMO-1 viab
C[C@@H]1CN([C@@H](C)CO)C(=O)c2cc(NC(=O)Nc3ccc(C(F)(F)F)cc3)ccc2O[C@@H]1CN(C)C(=O)Nc1ccc2c(c1)OCO2	102*
C[C@@H]1CCCCO[C@@H](CN(C)S(=O)(=O)c2ccccc2)[C@@H](C)CN([C@H](C)CO)C(=O)c2cc(NC(=O)Nc3ccc(C(F)(F)F)cc3)ccc2O1	30
COc1ccc(S(=O)(=O)N(C)C[C@@H]2Oc3c(NC(=O)Nc4ccc(C(F)(F)F)cc4)cccc3C(=O)N([C@@H](C)CO)C[C@H]2C)cc1	21
OC(COCc1ccccc1)Cn1c2ccccc2c2ccccc21 (configuration not stated)	89*
C[C@@H]1CN([C@H](C)CO)C(=O)c2cccc(NC(=O)C3CC3)c2O[C@@H]1CN(C)CC1CCCCC1	34
C[C@@H]1CN([C@H](C)CO)C(=O)c2cc(NS(=O)(=O)c3ccc(F)cc3)ccc2O[C@H]1CN(C)S(=O)(=O)c1ccc(F)cc1	-20
O=C(O)CCc1nn2c3ccccc3n(CCN3CCCCC3)c2nc1=O	23
C[C@H](CO)N1C[C@H](C)[C@@H](CN(C)C)Oc2c(NS(=O)(=O)c3ccc(Cl)cc3)cccc2C1=O	-8
O=C1OC(c2ccccc2)=N/C1=C\c1ccccc1C(F)(F)F	55
C[C@@H]1CN([C@H](C)CO)C(=O)c2cccc(NC(=O)c3ccncc3)c2O[C@@H]1CN(C)Cc1ccc(-c2ccccc2)cc1	17
C[C@H]1CN([C@@H](C)CO)C(=O)c2cc(NC(=O)Cc3ccccc3)ccc2O[C@@H]1CN(C)S(=O)(=O)c1cn(C)cn1	-18
COc1ccc(CN(C)C[C@@H]2Oc3ccc(NC(=O)Nc4ccc(C(F)(F)F)cc4)cc3CC(=O)N([C@H](C)CO)C[C@H]2C)cc1	18
C[C@@H]1CN([C@H](C)CO)C(=O)c2cc(NS(=O)(=O)c3cccs3)ccc2O[C@@H]1CN(C)C(=O)NC1CCCCC1	3
C[C@H]1CN([C@@H](C)CO)C(=O)c2cccc(NC(=O)c3ccncc3)c2O[C@H]1CN(C)C(=O)Nc1ccc(C(F)(F)F)cc1	9
Cc1ccc2nc(Nc3nc(CSc4nc5ccccc5s4)cc(=O)[nH]3)nc(C)c2c1	7
COc1cc(OC)cc(-c2nnc(SCC(=O)Nc3ccc(Cl)cc3C)n2-c2ccccc2)c1	26
COc1cccc(C(=O)Nc2cccc(OCC(=O)O)c2)c1	15
CC(Oc1ccc(Cl)cc1Cl)C(=O)Nc1cccc(-c2nnc(-c3ccccc3)o2)c1 (configuration not stated)	35
Cc1noc(C)c1S(=O)(=O)Nc1cccc2c1O[C@H](CN(C)C(=O)Nc1ccc(F)cc1)[C@H](C)CN([C@@H](C)CO)C2=O	27
CC(C)NC(=O)N(C)C[C@H]1Oc2ccc(NC(=O)Nc3ccc4c(c3)OCO4)cc2CC(=O)N([C@@H](C)CO)C[C@@H]1C	-20
Cn1c(SCC(=O)NC(C)(C)C)nnc1-c1ccco1	23
C[C@H]1CN([C@@H](C)CO)C(=O)c2cc(NS(=O)(=O)c3cn(C)cn3)ccc2O[C@H]1CN(C)Cc1ccc2c(c1)OCO2	-1
C[C@@H]1CN([C@@H](C)CO)C(=O)c2cccc(NC(=O)c3cnccn3)c2O[C@H]1CN(C)S(=O)(=O)c1ccc(Cl)cc1	2
Cc1cc(C)c(S(=O)(=O)N(CC(=O)O)C2CCCCC2)c(C)c1	-5
CC(C)NC(=O)N(C)C[C@@H]1Oc2ccc(NC(=O)CCCCCC(=O)Nc3ccccc3N)cc2C(=O)N([C@@H](C)CO)C[C@@H]1C	46
Cc1ccc(S(=O)(=O)NCCCO)cc1C(=O)O	-20
CCCN1CC=C2C(C#N)=C(N)C(C#N)(C#N)C3(C(=O)Nc4ccccc43)C2C1 (configuration not stated)	59
C[C@H]1CN([C@@H](C)CO)C(=O)Cc2cc(NC(=O)Cc3ccccc3)ccc2O[C@@H]1CN(C)S(=O)(=O)c1ccccc1	28
CCS(=O)(=O)c1nc2ccccc2n1CC(=O)N1CCCCC1	10
Cc1ccccc1OCC(=O)Nc1cc(-c2nc3ccccc3s2)ccc1Cl	27
C[C@@H]1CN([C@H](C)CO)C(=O)c2cc(NC(=O)Nc3ccc(F)cc3)ccc2O[C@@H]1CN(C)Cc1ccc(Cl)c(Cl)c1	63
COc1ccc(CN(C)C[C@H]2OCCCC[C@@H](C)Oc3ccc(NC(=O)Nc4ccc(F)cc4)cc3C(=O)N([C@H](C)CO)C[C@@H]2C)cc1	43
O=C(CN(C1CCCCC1)S(=O)(=O)c1ccc(F)cc1)Nc1cc(Cl)ccc1Cl	31
C=CCSc1nnc(NC(=O)c2nc(SCC)ncc2Cl)s1	3
O=C(COc1ccc(S(=O)(=O)N2CCCC2)cc1Cl)Nc1ccccc1F	13
COc1ccccc1OCC(=O)Nc1cccc(-c2nc3ccccc3s2)c1	10
C[C@H]1CN([C@@H](C)CO)C(=O)c2cc(NS(=O)(=O)c3cn(C)cn3)ccc2O[C@H]1CN(C)C(=O)NC1CCCCC1	3
Cn1c(=O)c2c(nc(NCCN3CCOCC3)n2Cc2cccc(F)c2)n(C)c1=O	18
C[C@H]1CN([C@@H](C)CO)C(=O)c2cc(NC(=O)Nc3ccc(C(F)(F)F)cc3)ccc2O[C@@H]1CN(C)C	-8
O=C1N(C2CCCCC2)C(=NC2CCCCC2)SC12CC2	19
CCN(CC(=O)Nc1ccc(Cl)c(C(F)(F)F)c1)S(=O)(=O)c1ccc(C)cc1	13
Cn1nc(C(=O)O)c2ccccc2c1=O	7
COC(=O)c1ccccc1NC(=O)CSc1nnnn1C1CCCCC1	25
COc1ccc(NC(=O)N(C)C[C@@H]2Oc3ccc(NC(=O)Nc4ccc(F)cc4)cc3CC(=O)N([C@H](C)CO)C[C@@H]2C)cc1	7
COc1ccc(CN(C)C[C@@H]2Oc3ccc(NS(=O)(=O)c4ccc(C)cc4)cc3C(=O)N([C@H](C)CO)C[C@H]2C)cc1	26
CCC1C(=O)N=C(SCC(=O)Nc2ccc(Br)cn2)NC1=O (configuration not stated)	13
C[C@H]1CN([C@@H](C)CO)C(=O)Cc2cc(NS(=O)(=O)c3cccs3)ccc2O[C@@H]1CN(C)C(=O)Nc1ccc(F)cc1	16
Cc1cc(C)nc(Nc2n[nH]c(CSc3nc4ccccc4s3)n2)n1	13
C[C@H]1CN([C@@H](C)CO)C(=O)c2cc(NC(=O)CCN3CCOCC3)ccc2O[C@@H]1CN(C)Cc1ccc(-c2ccccc2)cc1	14
C[C@@H]1CN([C@H](C)CO)C(=O)Cc2cc(NS(=O)(=O)c3ccc(Cl)cc3)ccc2O[C@@H]1CN(C)C(=O)NC1CCCCC1	2
CC(C)NC(=O)Nc1ccc2c(c1)C(=O)N([C@@H](C)CO)C[C@@H](C)[C@H](CN(C)Cc1ccncc1)O2	4
CCOC(=O)c1cccc(NC(=O)COc2ccc(Br)cc2)c1	27
Cc1ccc(S(=O)(=O)Nc2ccc3c(c2)C(=O)N([C@@H](C)CO)C[C@H](C)[C@H](CN(C)Cc2ccc4c(c2)OCO4)O3)cc1	0
C=CC[n+]1ccc2ccccc2c1	4
C[C@H](CO)N1C[C@H](C)[C@H](CN(C)C)Oc2ccc(NS(=O)(=O)c3cccs3)cc2CC1=O	7
COc1ccc(C(=O)N2CCNC(=O)C2CC(=O)Nc2ccc(C)cc2)cc1 (configuration not stated)	-20
C[C@@H]1CCCCO[C@H](CN(C)Cc2ccc3c(c2)OCO3)[C@@H](C)CN([C@H](C)CO)C(=O)c2cc(NS(=O)(=O)c3cn(C)cn3)ccc2O1	42
CC(=O)Nc1cc(NC(=O)CCCC(=O)O)ccc1Cl	23
C[C@@H]1CN([C@H](C)CO)C(=O)c2cccc(NC(=O)c3cnccn3)c2O[C@@H]1CN(C)Cc1ccc(Cl)c(Cl)c1	35
COc1cc(C(=O)O)cc(OC)c1O	-2
(more compounds)
SMILES	NOMO-1 viab
COC(=O)c1ccc([C@H]2C(C#N)=C(N)C(C#N)(C#N)C3=CCC(C(C)(C)C)C[C@@H]32)cc1 (some centres not stated)	116*
Cc1cc(C(=O)Nc2cccc3c2O[C@@H](CN(C)Cc2ccc(C(=O)Nc4ccccc4N)cc2)[C@@H](C)CN([C@H](C)CO)C3=O)n(C)n1	?
COC(=O)Nc1ccc(N=Cc2cccs2)cc1	8
Cc1ccc2ccc(C(Nc3ccccn3)c3c(F)cccc3Cl)c(O)c2n1 (configuration not stated)	110*
CCn1c(SCC(=O)Nc2cccc(Br)c2)nnc1-c1ccc(OC)cc1	-4
CC(Oc1ccc(-c2ccccc2)cc1)C(=O)Nc1ccccc1[N+](=O)[O-] (configuration not stated)	14
CC(C)NC(=O)Nc1ccc2c(c1)C(=O)N([C@H](C)CO)C[C@H](C)[C@@H](CN(C)Cc1ccncc1)OCCCC[C@@H](C)O2	-6
C[C@@H]1CN([C@@H](C)CO)C(=O)c2cccc(NC(=O)c3nc4ccccc4s3)c2O[C@@H]1CN(C)C(=O)Nc1cccc2ccccc12	61
C[C@@H]1CN([C@@H](C)CO)C(=O)c2cc(NS(C)(=O)=O)ccc2O[C@@H]1CN(C)S(=O)(=O)c1ccc(Cl)cc1	12
C[C@H]1CN([C@@H](C)CO)C(=O)c2cc(NC(=O)CCC(F)(F)F)ccc2O[C@H]1CN(C)C(=O)Nc1ccc2c(c1)OCO2	16
COc1ccc(NC(=O)N(C)C[C@@H]2Oc3c(NS(=O)(=O)c4ccccc4)cccc3C(=O)N([C@@H](C)CO)C[C@@H]2C)cc1	11
C[C@@H]1CN([C@@H](C)CO)C(=O)c2cccc(NC(=O)c3ccncc3)c2O[C@H]1CN(C)CC1CC1	11
O=C(Cc1ccccc1[N+](=O)[O-])NCc1ccco1	29
COc1ccc(CN(C)C[C@H]2Oc3ccc(NC(=O)Nc4ccc(F)cc4)cc3CC(=O)N([C@@H](C)CO)C[C@@H]2C)cc1	14
C[C@@H]1CN([C@@H](C)CO)C(=O)Cc2cc(NC(=O)Cn3cnnn3)ccc2O[C@@H]1CN(C)Cc1ccc(Cl)c(Cl)c1	46
Cc1ccc(S(=O)(=O)Nc2ccc3c(c2)C(=O)N([C@H](C)CO)C[C@H](C)[C@@H](CN(C)Cc2ccc(C(=O)Nc4ccccc4N)cc2)O3)cc1	27

Molecules from the list above containing an aryl thioether with sulfur outside any ring:
SMILES	NOMO-1 viab
CCn1c(SCC(=O)Nc2cccc(SC)c2)nnc1-c1ccc(Br)cc1	-28
CCOC(=O)c1c(NC(=O)CSc2nc3ccccc3[nH]2)sc2c1CCCC2	39
Cc1ccc2nc(Nc3nc(CSc4nc5ccccc5s4)cc(=O)[nH]3)nc(C)c2c1	7
COc1cc(OC)cc(-c2nnc(SCC(=O)Nc3ccc(Cl)cc3C)n2-c2ccccc2)c1	26
Cn1c(SCC(=O)NC(C)(C)C)nnc1-c1ccco1	23
C=CCSc1nnc(NC(=O)c2nc(SCC)ncc2Cl)s1	3
COC(=O)c1ccccc1NC(=O)CSc1nnnn1C1CCCCC1	25
Cc1cc(C)nc(Nc2n[nH]c(CSc3nc4ccccc4s3)n2)n1	13
CCn1c(SCC(=O)Nc2cccc(Br)c2)nnc1-c1ccc(OC)cc1	-4

Only part of the results is shown; the hit share may differ from the screen's.
